# Rango release inh – inhibition of RanGTP-driven Rango-importin beta dissociation; Potency, µM (series often up to 46.1 µM), inactives show top-dose activity change, negative = inhibition; Biochemical FRET Rango-importin beta, RanGTP-induced dissociation; 340,000 compounds, 0.071% hits; active means falling FRET ratio curve, often poorly fitted, with flat reads before Ran was added; inconclusive means other falling curves, or compound fluorescence or quenching; inactive means flat or rising ratio curve;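 also: potency is read from the fitted curve at half-maximal effect; % of control where 0% means no effect; nearly all actives have a fitted effect of over 45% in size; -100% = wells without RanGTP and RCC1; the record marks most hits as doubtful in a second field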
#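 Rango/importin beta premix (0.1/0.25 uM final), PBS + 1 mM DTT + 0.02% Tween-20 + 0.1% BSA; cpd 5 min RT; FRET pre-read; + RanGTP-RCC1 (0.6 uM Ran, 2 mM GTP, 0.2 uM RCC1); 45 min RT; FRET post-read, ex 430, em 486/530 nm.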
# GLA inh pH 4.5 – blocks human alpha-galactosidase A at pH 4.5. purified enzyme, 4-MU-alpha-Gal fluorescence, pH 4.5. 230,000 tested, under 10 active. activity change, negative = inhibition, % at 105 µM. P06280; inconclusive = small, poorly fitted or top-dose-only inhibition, or a rising curve; inactive = flat fitted curve, though single readings scatter; no compound was filed as active;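 also: 0% = full activity with enzyme and -100% = basal without enzyme; dose as in the result columns while the protocol names 77 µM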
# Rango-impB inh – Rango-importin beta binding inhibition. Q14974. Rango CFP/YFP FRET sensor + importin beta, 45 min. Potency, µM (titrated, usually from 92.2 µM), inactives show at the highest dose inhibition of complex formation. 340,000 compounds, 0.031% hits; active = rising FRET ratio curve, often small or poorly fitted; inconclusive = mostly compound fluorescence or quenching in the first reads; inactive = flat curves in all reads;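 also: potency is read from the fitted curve at half-maximal effect; 0% = DMSO wells and 100% = buffer wells lacking importin beta; nearly all actives have a fitted effect of over 15% in size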
# Target sequence (Q14974 whole entry, looked up): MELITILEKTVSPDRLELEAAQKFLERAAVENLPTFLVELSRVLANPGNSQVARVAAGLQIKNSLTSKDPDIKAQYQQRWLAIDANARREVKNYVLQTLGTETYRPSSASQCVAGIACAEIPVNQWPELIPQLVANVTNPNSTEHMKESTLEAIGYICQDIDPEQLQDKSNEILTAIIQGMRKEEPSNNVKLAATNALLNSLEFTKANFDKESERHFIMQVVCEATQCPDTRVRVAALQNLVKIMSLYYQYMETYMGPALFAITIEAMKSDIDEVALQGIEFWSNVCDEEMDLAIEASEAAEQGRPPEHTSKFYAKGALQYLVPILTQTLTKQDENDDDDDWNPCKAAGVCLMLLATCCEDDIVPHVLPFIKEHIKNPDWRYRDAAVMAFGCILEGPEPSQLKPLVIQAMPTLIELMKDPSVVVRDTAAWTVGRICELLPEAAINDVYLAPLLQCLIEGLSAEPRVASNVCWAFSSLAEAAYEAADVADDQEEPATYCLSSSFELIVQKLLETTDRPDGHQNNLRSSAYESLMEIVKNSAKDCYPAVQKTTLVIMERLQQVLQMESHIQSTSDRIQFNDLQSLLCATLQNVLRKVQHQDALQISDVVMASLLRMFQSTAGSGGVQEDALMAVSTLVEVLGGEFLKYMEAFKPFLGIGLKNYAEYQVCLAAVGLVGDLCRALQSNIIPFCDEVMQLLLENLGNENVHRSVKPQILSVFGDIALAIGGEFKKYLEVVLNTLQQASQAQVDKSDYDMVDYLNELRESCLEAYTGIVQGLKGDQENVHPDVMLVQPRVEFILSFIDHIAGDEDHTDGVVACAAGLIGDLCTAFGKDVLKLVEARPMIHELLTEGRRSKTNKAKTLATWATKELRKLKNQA
#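 FRET biosensor Rango (snurportin 1 IBB between N-terminal EYFP and C-terminal Cerulean), 50 nM in PBS/1 mM DTT/0.02% Tween-20/0.1% BSA, preincubated 5 min RT with compound; 0.125 microM importin beta added, 45 min RT, CFP/YFP FRET ratio read.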
# miR-21 FLuc – miR-21 reporter, rising signal | HeLa miR-21 FLuc reporter, luciferase, 48 h | Potency, µM (highest dose often 38.3 µM), for inactives: at the highest dose reporter change, positive = more light | 340,000 tested, under 10 active; active = well fitted rising curve with a large enough effect; inconclusive = small, poorly fitted or top-dose-only effect; inactive = no such curve, though single readings can be large or run the other way;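 also: % of control where 0% means no effect; miR-21 action dims this reporter so a rising signal means less miR-21 action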
#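 HeLa cells endogenously expressing miR-21, stably carrying CMV-driven firefly luciferase with a downstream miR-21 binding site, 2000 cells/well. Titrations up to approximately 40 uM, 48 hours; luciferase luminescence read.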
# The depositor's hits bear a star; ? = inconclusive; . = no result given; & = joins results of further samples.
Structure	miR-21 FLuc	GLA inh pH 4.5	Rango-impB inh	Rango release inh
Cn1c(=O)[nH]c(=O)c2c1nc(SCCN1CCOCC1)n2CCCc1ccccc1	-1%	-7	-1.9%	-6%
COc1ccc(C(=O)NNC(=O)CCc2nc3ccccc3c(=O)[nH]2)cc1	.	.	-0.6%	8%
COc1ccc(C2CC(c3ccccc3)=NN2C(=O)CSc2nccc(=O)[nH]2)cc1 (stereo not given)	-49%	13	4.5%	0%
CCc1ccc(C(=O)NC(C(=O)O)C(C)C)cc1 (stereo not given)	1%	-9	0.1%	0%
COc1cc(NC(=O)CNc2cccc(S(=O)(=O)N3CCOCC3)c2)cc(OC)c1	.	.	2.9%	10%
CCOC(=O)CSc1nc2ccccc2c(=O)n1C	-8%	10	-2.5%	5%
CCc1ccc(NC(=O)CSCCO)cc1	-34%	3	-4.5%	1%
CCc1nnc(NC(=O)CN2C(=O)/C(=C/c3cc(OC)c(OC)c(OC)c3)SC2=S)s1	0%	-24	?	?
O=C(CN1CCN(C(=O)c2ccccc2)CC1)Nc1ncc(Br)cc1Br	-3%	-9	-1.5%	0%
Cc1ccc(/C=N/NS(=O)(=O)c2ccc([N+](=O)[O-])cc2)o1	-2%	1	4.1%	-5%
CCOc1cc(N2CCOCC2)c(OCC)cc1NC(=O)c1ccc(S(C)(=O)=O)cc1	-1%	-4	3.0%	-22%
COc1ccc(NC(=O)CSCC(=O)Nc2cccc3ncccc23)cc1	.	.	-1.2%	0%
CN(C)c1ccc(C(C(=O)NC(C)(C)C)N(C(=O)c2csnn2)C2CC2)cc1 (stereo not given)	-22%	-4	-5.7%	-7%
O=C(NCCc1ccccc1)C(=O)NN=C1CCCC1	-3%	1	2.2%	0%
O=C(NCCO)c1cc2ccccc2c(=O)s1	-8%	-1	1.2%	-3%
CN1C(=O)CSC1=Nc1ccc(Br)cc1	0%	.	5.0%	7%
N#Cc1ccccc1COC(=O)c1ccc2c(c1)OCO2	.	.	1.2%	-2%
O=C(Nc1ccccc1)Nc1n[nH]c2nnc(-c3ccccc3)c(-c3ccccc3)c12	8%	.	-3.8%	0%
O=C1/C(=C\c2ccc(Cl)cc2)CCC1CNc1ccc(Cl)cc1 (stereo not given)	.	.	-2.5%	-12%
CCOc1ccc(C(=O)NCCN(C)C)cc1	-3%	-14	-2.5%	-1%

Structure	miR-21 FLuc	GLA inh pH 4.5	Rango-impB inh	Rango release inh
CN1CCCC(OC(=O)c2ccc(C#N)cc2)C1 (stereo not given)	-1%	.	0.8%	-14%
O=C(CN1C(=O)NC2(CCCC2)C1=O)N1CCN(S(=O)(=O)c2cccc(C(F)(F)F)c2)CC1	.	.	-3.3%	-7%
C#CCOCCOCCOCCNc1nc(N2CCN(C(=O)[C@H](CCCCN)n3cc(CN)nn3)CC2)nc(N2CCN(C(=O)[C@H](CCCCN)n3cc(CN)nn3)CC2)n1	.	.	8.2%	19%
CCOC(=O)N1CCC(N(CCOC)C(=O)Nc2ccc(Cl)cc2)CC1	-14%	0	2.0%	7%
COc1ccc(C2C(C#N)=C(N)N(c3ccccc3C#N)C3=C2C(=O)CCC3)cc1CN1CCCC1 (stereo not given)	-9%	-1	-3.5%	7%
O=C(NC(c1ccccc1)c1ccccc1)c1ccc(S(=O)(=O)C(F)F)cc1	-4%	0	-1.8%	-8%
Cc1cc2c(cc1C)C(c1cc(Br)ccc1F)CC(=O)N2 (stereo not given)	9%	3	5.0%	16%
CSCCNC(=O)c1ccc(OC2CCN(CCc3ccccc3)CC2)cc1	-13%	1	-3.4%	3%
Cc1ccc(S(=O)(=O)NC2CC(C)(C)NC(C)(C)C2)c(C)c1C	-1%	.	0.8%	-4%
FC(F)(F)c1cnc(Sc2nc3nccc(-c4ccc(Cl)cc4)n3n2)c(Cl)c1	-4%	7	-0.8%	1%
COc1ccc(C(=O)CCC(=O)N2CCN(c3cc(C)ccc3C)CC2)cc1	19%	.	0.3%	-11%
O=C(CCn1cnc2ccccc2c1=O)Nc1nc2c(s1)CCCC2	-4%	5	-1.8%	-5%
CN1CCN(C(=O)CC2(CC(=O)O)CCCC2)CC1	1%	3	-3.0%	0%
CCOC(=O)c1cc(NC(=O)Nc2ccccc2OC)c(C)nc1C	8%	6	-4.0%	6%
CC1=CN2C(=N)/C(=C/c3ccc([N+](=O)[O-])o3)C(=O)N=C2S1	?	2	?	?
CN(Cc1cn(C)nc1-c1ccccc1F)CC1CCCCO1 (stereo not given)	-1%	-1	1.8%	10%
COc1ccc(CNC(=O)CN(c2ccc(OC)cc2)S(=O)(=O)c2c(C)[nH]c(=O)[nH]c2=O)cc1	-2%&0%	.	-1.2%	4%
COc1ccc(CC(=O)Nc2ccc(S(=O)(=O)N3CCN(C)CC3)cc2)cc1	.	.	-3.4%	19%
COc1ccc(OC)c(NC(=O)C2CC(=O)n3ncnc3N2)c1 (stereo not given)	1%	-5	0.5%	2%
CCSc1nc(C)cc(C)c1S(=O)(=O)c1ccccc1C	1%	3	-1.2%	0%

Structure	miR-21 FLuc	GLA inh pH 4.5	Rango-impB inh	Rango release inh
CCc1ccccc1S(=O)(=O)c1c(C)cc(C)nc1Cl	-5%	.	-0.5%	-1%
O=C(O)c1ccc(COc2cccc(CO)c2)cc1	-29%	-4	-3.3%	-10%
CN(C)S(=O)(=O)c1ccc2oc(SCC(=O)Nc3ccccc3F)nc2c1	-52%	4	-0.1%	-1%
CSc1ccc(Cn2nnc(C(=O)Nc3ccc(C)c(C)c3)c2N)cc1	-19%	-3	1.4%	41%
CCCOc1ccc(N2C(=O)C3C(C(C)C)NC4(C(=O)c5ccccc5C4=O)C3C2=O)cc1 (stereo not given)	-3%	6	15%	-6%
CCNC(=S)N1CC(C)OC(C)C1 (stereo not given)	0%	-22	-0.6%	-17%
CN(c1ccccc1)c1ncnc2c1ncn2C	.	.	-1.7%	9%
COc1ccccc1NC1=C(NC(C)=O)C(=O)c2ccccc2C1=O	12%	1	-0.4%	1%
CCN(CC)S(=O)(=O)c1cccc(C(=O)Nc2nncs2)c1	-4%	-8	0.5%	-3%
O=C(Cc1c[nH]c2ccccc12)N/N=C/c1cccc(F)c1	-13%	1	-6.6%	9%
Cc1ccc(S(=O)(=O)N(C)C)cc1NC(=O)COc1ccc(-c2nnco2)cc1	-10%	-2	0.1%	-12%
CCOc1ccc(Oc2cc(N)cc([N+](=O)[O-])c2)cc1	-21%	-9	0.7%	0%
COc1ccccc1N1CCN(C(=O)CSc2ncnc3c2cnn3-c2ccc(C)c(C)c2)CC1	-46%	-5	-1.9%	-13%
CCCCCCSC1=C(C#N)C(c2ccc(C)o2)CC(=O)N1 (stereo not given)	-3%	-5	?	9%
Cc1ccc(O)c(NC(=O)c2onc(C)c2Cl)c1	-42%	.	-0.6%	10%
CSc1ccccc1C(=O)NCC(c1ccco1)N(C)C (stereo not given)	2%	.	0.2%	15%
C=CCc1c(C)nc2c(C)cccc2c1SC(=N)N	-2%	-4	-0.4%	27%
N=c1n(CCN2CCCC2)c2ccccc2n1CC(O)c1ccc(Cl)c(Cl)c1 (stereo not given)	?	-2	2.0%	35%
O=C(COC(=O)c1ccccn1)Nc1cc(Cl)ccc1Cl	-7%	12	-1.2%	2%
COc1ccc(CCNC(=O)C/C(C)=N/NC(=O)c2cnccn2)cc1	-5%	.	1.7%	1%

Structure	miR-21 FLuc	GLA inh pH 4.5	Rango-impB inh	Rango release inh
CC(=O)N1C(=O)N(C)C2C1N(C(C)=O)C(=O)N2C (stereo not given)	-4%	6	5.2%	16%
COc1cc2c(cc1OC)CN(CC(O)c1ccccc1)CC2 (stereo not given)	-15%	.	?	?
CC(NC(=O)c1cccc(S(=O)(=O)N2CCc3ccccc32)c1)c1ccco1 (stereo not given)	.	.	-6.2%	-15%
COC(=O)CN1C(=S)N(c2ccccc2)C(=O)C1CC(=O)Nc1ccc(Cl)cc1 (stereo not given)	-4%	-13	-1.0%	4%
CN(C)/C=C/C(=O)c1nnn(C2CCCCC2)c1NC1CCCCC1	15%	-6	8.9%	1%
C=CCn1c(COc2ccc(Cl)cc2)nnc1SCC(=O)c1c(N)n(C)c(=O)n(C)c1=O	-3%	-6	0.2%	2%
O=[N+]([O-])c1cc(CN2CCCCCC2)ccc1O	-1%	.	-3.7%	-6%
O=C1c2ccccc2CN2C(=O)c3ccccc3CN12	-2%	.	?	4%
CC(C)(C)C(=O)Oc1cc(N)n(S(=O)(=O)c2ccc(F)cc2)n1	0%	-3	-0.3%	2%
O=C(Nc1ccc([N+](=O)[O-])cc1)c1cn(-c2ccccc2)nc1-c1cc2ccccc2o1	-9%	2	-3.2%	0%
CCOC(=O)Cn1nc(C)n(-c2ccccc2)c1=O	0%	-22	1.3%	4%
CCOc1ccc(NC(=O)C2CCN(S(=O)(=O)c3cccs3)CC2)cc1	29%	.	2.1%	-4%
Cc1cc(C)nc(SCCS(=O)(=O)Cc2ccccc2)n1	0%	-1	3.6%	3%
NNC(=O)c1csc(CS(=O)(=O)c2ccc(Cl)cc2)n1	-1%	0	2.9%	0%
O=C(NCc1cccs1)C1CCN(C(=O)NCc2ccccc2)CC1	-7%	-8	3.7%	1%
CC1CC(C)(C)NC(=S)N1CCCC(=O)Nc1ccc2c(c1)OCCO2 (stereo not given)	-47%	-5	-0.8%	-8%
CCc1nnc(NC(=O)c2ccc(OC)cc2OC)s1	-2%	-1	1.6%	27%
NC(=O)c1ccccc1N1CCCCC1	3%	0	0.3%	-18%
CCCCCCCC#Cc1ccccc1/C=N/S(=O)c1ccc(C)cc1 (stereo not given)	-10%	3	-2.3%	5%
Nc1c(C(=O)NCc2ccccc2)c2nc3ccccc3nc2n1CCCN1CCOCC1	21%	12	?	?

Structure	miR-21 FLuc	GLA inh pH 4.5	Rango-impB inh	Rango release inh
COc1ccc(CNC(=O)c2sc(=S)n(-c3ccc(OC)cc3)c2N)cc1	2%	-2	3.9%	-3%
Brc1ccc(Nc2nc(-c3cccnc3)cs2)cc1	-38%	3	1.0%	1%
O=C(COc1ccccc1Cl)Nc1ccc(CN2CCCCC2)cc1	-2%	?	2.3%	-7%
O=C(NC1CC2CCC(C1)N2C(=O)NC1CCCCC1)NC12CC3CC(CC(C3)C1)C2 (stereo not given)	-3%	7	-2.1%	4%
CC(C)CCNC(=O)c1c[nH]c2ccc(S(=O)(=O)N3CCOCC3)cc2c1=O	0%	.	-4.3%	-2%
COc1cccc(NC(=O)Cn2nnc(C(=O)NCc3ccc4c(c3)OCO4)c2N)c1	-3%&-5%	.	-3.7%	-1%
COn1c(C)c(C)c2c3nonc3ccc21	-7%	0	?	?
CCOCCCNC(=O)c1ccc(CS(=O)(=O)Cc2ccc(C)cc2)o1	-2%	5	-3.2%	4%
O=C(COc1ccc(-c2nnco2)cc1)NC1CCCc2ccccc21 (stereo not given)	-16%	1	1.0%	13%
Nc1nc(NCC2CCCO2)nc(Nc2ccc(Cl)cc2)c1[N+](=O)[O-] (stereo not given)	-7%	-9	1.6%	14%
NC(=O)c1ccc(N2CCN(S(=O)(=O)c3ccccc3)CC2)c([N+](=O)[O-])c1	22%	1	0.6%	28%
CC(=O)NC1=C(Nc2ccc(N(C)C)cc2)C(=O)c2ccccc2C1=O	9%	.	0.1%	-7%
C[C@]12c3[nH]c4cc(-c5ccco5)ccc4c3CCN1C(=O)[C@@H](CC(=O)NCC13CC4CC(CC(C4)C1)C3)C[C@@H]2C(=O)N1CCCCC1	.	.	0.4%	-7%
COc1ccccc1NS(=O)(=O)/C=C/c1ccccc1	-15%	6	-3.3%	4%

# Record cards, from the list above.
# COc1cccc(NC(=O)Cn2nnc(C(=O)NCc3ccc4c(c3)OCO4)c2N)c1 across the screens: miR-21 FLuc = -3%&-5%; GLA inh pH 4.5 = .; Rango-impB inh = -3.7%; Rango release inh = -1%
# CC(=O)NC1=C(Nc2ccc(N(C)C)cc2)C(=O)c2ccccc2C1=O across the screens: miR-21 FLuc = 9%; GLA inh pH 4.5 = .; Rango-impB inh = 0.1%; Rango release inh = -7%

# Screens as filed in PubChem BioAssay.

# An excerpt. The share of hits here may be higher or lower than overall.
